High-throughput results from PubChem BioAssay.
MT1-MMP promoter: inhibitors of MT1-MMP promoter transcription, cell-based, luciferase reporter, luminescence (AID 618); MT1-MMP promoter luciferase reporter cells, luminescence; calls from a first round at 10 µM; hits with a dose series show EC50 in µM; hit rate 0.62% among 87,000;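 active means over half of the reporter light lost at 10 µM or EC50 under 50 µM; inactive means the rest and hits that failed the dose series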;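 further: actives suppress MT1-MMP promoter-driven transcription so potencies describe inhibitors; HT1080 fibrosarcoma cells; overnight exposure; toxic or luciferase-blocking compounds were not removed from the actives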
WNV NS2B-NS3 inh: blocks West Nile virus NS2B-NS3 protease activity. P06935. WNV NS2B-NS3 protease, fluorogenic substrate Ex360/Em465; hits give low values. z-score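 (tested at a level between 10 and 100 µM)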. hit rate 0.18% among 65,000. AID 577;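 active means z-score at -3 or under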;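 further: score is relative to mean and spread of the compound wells of a plate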
Target sequence (P06935 1371-1501 limits assumed): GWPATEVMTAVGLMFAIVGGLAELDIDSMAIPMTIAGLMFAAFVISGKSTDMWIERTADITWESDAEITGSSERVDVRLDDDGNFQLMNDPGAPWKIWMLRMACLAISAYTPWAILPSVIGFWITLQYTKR
Target sequence (P06935 1502-1679 limits assumed): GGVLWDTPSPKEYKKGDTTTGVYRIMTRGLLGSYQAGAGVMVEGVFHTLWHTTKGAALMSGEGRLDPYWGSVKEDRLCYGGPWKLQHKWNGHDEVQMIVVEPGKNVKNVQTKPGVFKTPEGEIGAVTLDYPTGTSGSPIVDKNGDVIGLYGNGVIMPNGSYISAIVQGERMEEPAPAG
Hsc70 ATP site: Hsc70 inhibitors, probe displacement, primary screen, biochemical, fluorescence polarization (AID 568). Hsc70 fluorescence polarization, probe displacement; higher % means a stronger effect; strong numbers were not always called active. 83,000 tested, under 10 active. one-dose displacement, % at 20 µM; IC50 in µM for titrated hits;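 active means displacement above 50% without optical interference and an IC50 on retest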;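 further: ATPase domain with a fluorescein-tagged ATP probe; 0% = vehicle and 100% = excess ADP; read after one hour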
The depositor's hits bear a star; i = inactive; / = not tested or not shown.

mol | Hsc70 ATP site | MT1-MMP promoter | WNV NS2B-NS3 inh
CCCS(=O)(=O)N1CCN(C(=O)COc2ccccc2)CC1 | -5.7% | i | /
O=C(NCc1ccco1)C(c1ccco1)N(CCc1ccccc1)C(=O)Cn1nnc2ccccc21 (centres undefined) | 2.1% | i | 0.64
CC(=O)Nc1ccc(S(=O)(=O)NCc2ccc(C(=O)NC(C)c3ccccc3)cc2)cc1 (centres undefined) | 3.4% | i | /
COc1ccc(Cl)cc1-c1n[nH]c(=S)o1 | 7.8% | i | -0.0067
CCOc1ccc(NC(=O)Cn2nnc(-c3ccccc3NC(=O)CC)n2)cc1 | -1.8% | i | 1.4
COc1ccc(-n2ncc3c(SCC(=O)N4CCN(c5ccccc5OC)CC4)ncnc32)cc1 | 8.4% | i | /
Cc1cc(C)n(-c2c(F)c(F)c(CO)c(F)c2F)n1 | -2.1% | i | /
CC(C)N(Cc1nc(-c2ccccc2)no1)C(=O)CSc1ccccc1 | -2.8% | i | 0.78
COc1ccc(OCCC(=O)Nc2cc(C)on2)cc1 | 2.0% | i | -0.86
CCCOc1ccc(/C(O)=C2/C(=O)C(=O)N(CCN(C)C)C2c2ccncc2)cc1 (centres undefined) | -3.9% | i | 0.16
COc1cccc(-n2nc(-c3ccnn3-c3ccc(C)cc3)c(=O)n(C)c2=O)c1 | 1.2% | i | /
O=S(=O)(c1cccc(-c2cn3cccnc3n2)c1)N1CCCCCC1 | -6.9% | i | -0.21
COC(=O)c1ccc(CSc2nc3c(cnn3-c3ccc(C)c(C)c3)c(=O)[nH]2)o1 | -3.2% | i | 0.11
COc1ccc(-c2coc3c(CN4CCCCC4)c(O)c(CN4CCCCC4)c(O)c3c2=O)cc1 | 4.6% | i | -0.52
COc1ccccc1Oc1c(C)oc2c(CN3CCN(C)CC3)c(O)ccc2c1=O | 2.5% | i | 1.8
Cc1ccccc1Nc1nc(CSc2nnc(-c3ccoc3C)n2C)cs1 | -13% | i | -1.3
COc1cccc(CNS(=O)(=O)c2cc(Br)cc3c2N(C(C)=O)C(C)C3)c1 (centres undefined) | 1.5% | i | /
CCc1cc(-c2n[nH]c(C)c2-c2nc3ccccc3n2C)c(O)c(CN2CCN(C)CC2)c1O | 0.9% | i | -0.25
CCC(C)Oc1nc2ccccc2nc1NS(=O)(=O)c1ccccc1 (centres undefined) | -0.7% | i | /
COC(=O)c1ccccc1NC(=O)/C=N/O | 1.6% | i | /
COc1cc(OC)c2c(C)c(Cl)c(=O)oc2c1 | 1.4% | i | 1.4
Cc1ccc(/C(O)=C2\C(=O)C(=O)N(c3cc(C)on3)C2c2cccc(Br)c2)cc1 (centres undefined) | 1.8% | i | -1.2
O=C1OCc2cc(NC(=O)C34CC5CC(CC(C5)C3)C4)ccc21 | 8.7% | i | /
CCN(CC)C(=O)Cn1nnc(-c2ccc(C)o2)n1 | -2.6% | i | -1.7

The last 3 entries of the part before are carried over, then new ones follow:
mol | Hsc70 ATP site | MT1-MMP promoter | WNV NS2B-NS3 inh
Cc1ccc(/C(O)=C2\C(=O)C(=O)N(c3cc(C)on3)C2c2cccc(Br)c2)cc1 (centres undefined) | 1.8% | i | -1.2
O=C1OCc2cc(NC(=O)C34CC5CC(CC(C5)C3)C4)ccc21 | 8.7% | i | /
CCN(CC)C(=O)Cn1nnc(-c2ccc(C)o2)n1 | -2.6% | i | -1.7
CCOC(=O)N1CCN(c2nc(-c3ccc(F)cc3)cs2)CC1 | 13% | i | -0.56
CC(C)CCN1CC(C(=O)NCCC2=CCCCC2)CC1=O (centres undefined) | -2.3% | i | -0.87
Cc1ccc(C2CC(=O)NC(SCCC(C)C)=C2C#N)cc1 (centres undefined) | 1.0% | i | -1.5
C=CCOc1nc2c(c(=O)n(C)c(=O)n2C)n1Cc1ccc(Cl)cc1Cl | 1.2% | i | 0.15
COc1ccc(Nc2ncc3c(n2)CC(c2ccc(C)cc2)CC3=O)cc1 (centres undefined) | 0.7% | i | /
CCCC12CN(C(=O)c3ccc(OC)cc3)CC(C)(CN(C(=O)c3ccc(OC)cc3)C1)C2=O | 1.8% | i | 0.52
COc1cc2c(cc1OC)C(C(=O)NCc1ccco1)C(c1cccs1)N(C)C2=O (centres undefined) | -4.3% | i | -0.95
COc1cc(N2C(=O)NC3CC2(C)Oc2ccc(Br)cc23)cc(OC)c1OC (centres undefined) | 0.0% | i | -0.45
COc1ccc(-c2cc(NCCc3ccncc3)n3ncnc3n2)cc1 | -3.5% | i | -0.01
COc1ccc(OCCSc2nnc(-c3ccoc3C)n2C)cc1 | 4.9% | i | -0.69
N#CCCn1c(Cl)nc2ccccc21 | 0.6% | i | 0.47
COc1ccccc1-n1c(CNC(=O)c2ccco2)nnc1SCC(=O)Nc1nccs1 | -1.8% | i | -0.32
Cc1ccnc(NS(=O)(=O)c2ccc(N)cc2)n1 | -2.6% | i | /
CCCN1C2=NCCCN2c2ccccc21 | -4.0% | i | /
O=C1CC(Cc2ccccc2)C(=O)N1CCCn1ccnc1 (centres undefined) | 4.9% | i | -0.42
CCOC(=O)CNC(=O)c1ccc(C)cc1 | -1.2% | i | /
O=C(CCCn1c(=S)[nH]c2cc3c(cc2c1=O)OCO3)N1CCN(c2ccccc2)CC1 | -2.0% | i | -0.39
COc1ccc(C(=O)N=c2c(C#N)cc3c(=O)n4cccc(C)c4nc3n2Cc2ccco2)cc1 | -1.2% | i | /
CC(=O)Nc1ccc(C(=O)N2CCN(C(=O)c3ccco3)CC2)cc1 | -1.1% | i | -0.54
COc1cc2nc(C3CCC3)n(NC(=O)C3CCC(OC)CC3)c(=O)c2cc1OC (centres undefined) | 4.7% | i | -0.46
CCOC(=O)C1CCN(CC(=O)c2c(C)[nH]c3ccccc23)CC1 | 1.7% | i | 0.56
CCCOc1ccc(N2C(=O)CC(N3CCC(O)(c4cccc(C(F)(F)F)c4)CC3)C2=O)cc1 (centres undefined) | 6.4% | i | -0.38
O=C(COC(=O)C12CC3CC(CC(C3)C1)C2)NCc1ccco1 | -5.4% | i | -0.42
CN1CCC(N(C)C(=O)c2ccccc2Nc2ccc(SC(F)F)cc2)CC1 | 9.9% | i | 1.9
COc1ccc(-c2cc(-c3cccs3)c(C#N)c(SCC(=O)NCc3ccccc3OC)n2)cc1 | 6.0% | i | /
CCn1c(C)c(C(C)=O)c(N2CCN(c3ccc(F)cc3)CC2)nc1=S | -0.4% | i | /
C=CCn1c(O)c(N=NC(=S)Nc2ccc(OC)cc2)c2ccccc21 | 5.3% | i | /
OC(CN1CCOCC1)Cn1c(-c2cccc(Cl)c2)nc2ccccc21 (centres undefined) | -2.0% | i | -0.53
C=CCn1c(=O)c2c(C)c(C)sc2n2c(Nc3ccccc3)nnc12 | 0.0% | i | 0.46
CCN1CCN(CNC(=O)c2cnccn2)CC1 | 3.8% | i | -4.8*
Cc1noc(C)c1COC(=O)Cc1ccc(Cl)cc1 | -1.1% | i | -0.3
CCc1nc2oc3ccccc3c(=O)c2c(=O)n1CCOC | -6.5% | i | -0.6
O=C(Oc1nsnc1N1CCOCC1)N(c1ccccc1)c1ccccc1 | -0.5% | i | 2
CCOC(=O)c1ccc(NC(=O)CSc2nnc(-c3ccncc3)n2C)cc1 | -3.3% | i | 0.4
O=C(NCc1ccco1)C1CCN(C(=O)c2cc3sccc3n2Cc2ccc(F)cc2)CC1 | -1.1% | i | -0.29
Cc1nn(S(=O)(=O)N(C)C)c(C)c1CN1C(=O)c2ccccc2C1=O | -1.2% | i | 1.2
CCC(C)n1c(SCC(=O)NC(=O)Nc2ccc3c(c2)OCCO3)nc2ccccc2c1=O (centres undefined) | 8.2% | i | 0.66
CC1(C(=O)CSc2n[nH]c(-c3ccccc3Cl)n2)CCC(=O)O1 (centres undefined) | -3.0% | i | -0.43
Cc1cc2nc(C)c(Cc3ccccc3)c(=O)n2[nH]1 | 4.9% | i | -0.66
COC(=O)c1ccccc1NC(=O)CC(NCc1ccccc1)C(=O)O (centres undefined) | -1.6% | i | 0.15
CC(C)(C)C1=Nn2c(nnc2-c2ccccn2)SC1 | 3.4% | i | 0.49
CC(NC(=O)c1ccco1)C(c1cccs1)N1CCN(c2ccc(F)cc2)CC1 (centres undefined) | 6.2% | i | 0.12
O=C(C1CCCO1)N1CCN(S(=O)(=O)c2ccccc2)CC1 (centres undefined) | 0.9% | i | -0.07
O=c1nc(-c2ccccc2)c2cc(Cl)ccc2[nH]1 | -1.7% | i | 0.33
CSc1cccc(NC(=O)CN(C2CCCCC2)S(C)(=O)=O)c1 | 3.1% | i | -0.51
CCn1cc(C(=O)O)c(=O)c2cc(Br)ccc21 | 3.5% | i | /
COc1ccc(CCNc2nc(C)nc3c2oc2ccccc23)cc1OC | 6.0% | i | /
O=C(O)C1(NS(=O)(=O)c2ccc(Cl)cc2)CCCCC1 | 2.2% | i | /

Arranged by formula weight (ascending): part of the list above.
mol | Hsc70 ATP site | MT1-MMP promoter | WNV NS2B-NS3 inh
CCn1cc(C(=O)O)c(=O)c2cc(Br)ccc21 | 3.5% | i | /
O=C(C1CCCO1)N1CCN(S(=O)(=O)c2ccccc2)CC1 (centres undefined) | 0.9% | i | -0.07
CC1(C(=O)CSc2n[nH]c(-c3ccccc3Cl)n2)CCC(=O)O1 (centres undefined) | -3.0% | i | -0.43
COC(=O)c1ccccc1NC(=O)CC(NCc1ccccc1)C(=O)O (centres undefined) | -1.6% | i | 0.15
CCC(C)n1c(SCC(=O)NC(=O)Nc2ccc3c(c2)OCCO3)nc2ccccc2c1=O (centres undefined) | 8.2% | i | 0.66

Other structures.
mol | Hsc70 ATP site | MT1-MMP promoter | WNV NS2B-NS3 inh
CN1C=C(C(F)(F)F)C=C/C1=C(\C#N)c1nnc2n1CCCCC2 | -7.6% | i | -0.06
Cc1[nH]nc2c1C(c1ccc(OC(=O)c3ccco3)cc1)C(C#N)=C(N)O2 (centres undefined) | -3.7% | i | -1.2
Cc1ccc(C2CC(C(F)(F)F)n3ncc(C(=O)NCc4ccco4)c3N2)cc1 (centres undefined) | 4.9% | i | -0.01
CN(C)c1cccc(-c2nnc(SCCCC#N)o2)c1 | -3.6% | i | -0.56
CCOC(=O)c1c(C(C)(C)C)oc2ccc(OCC#N)cc12 | -6.7% | i | 0.0028
O=C(NCc1ccccn1)c1cc(-n2cnnc2)ccc1Cl | 4.5% | i | -0.64
COc1c(F)c(F)c(C(=O)Nc2ccc(NC(=O)c3ccco3)cc2)c(F)c1F | -5.8% | i | -0.02
O=c1oc2c(CN3CCCCC3)c(O)ccc2c2c1CCCCC2 | 3.8% | i | -0.13
C=CCOc1cccc(C2c3c(oc4ccc(F)cc4c3=O)C(=O)N2CCCN2CCOCC2)c1 (centres undefined) | -4.4% | i | 0.11
Cc1cc(NC(=O)CCC(=O)N(c2ccccc2)C2(C(=O)NC3CCCCC3)CCCC2)no1 | 4.0% | i | -0.32
CCOC(=O)Cc1cnc(NC(=O)c2ccccc2)s1 | 6.8% | i | 1.1
CCC(C)(C)NC(=O)C(c1ccncc1)N(Cc1cccs1)C(=O)Cn1nnc2ccccc21 (centres undefined) | 1.1% | i | -1.4
Cc1ccc(CNc2ncnc3cc(Cl)ccc23)o1 | -3.2% | i | /
CC1(C(=O)NC2CCCC2)CCC(=O)N1Cc1cccs1 (centres undefined) | -1.0% | i | 0.61
O=C(Nc1ccc(NC(=O)C2CC2)nc1)c1ccncc1 | -1.6% | i | -0.32
COc1ccc(-c2csc(N3CCN(C(=O)c4ccccc4)CC3)n2)cc1 | -5.0% | i | /
O=c1oc(-c2cccc(Cl)c2)nc2c1cnn2-c1ccccc1 | 5.5% | i | /
COc1ccc(NC(=O)CSc2nnc(-c3ccccc3C)n2N)cc1 | -12% | i | -0.03
CCn1c(=NC(=O)c2ccc(N3C(=O)CCC3=O)cc2)sc2c(OC)ccc(OC)c21 | -2.4% | i | -1.2
O=S(=O)(Nc1nc2ccccc2s1)c1ccc(Br)s1 | -1.2% | i | -0.45
CN(c1ccc(C(=O)NCCSCc2ccco2)cc1)S(C)(=O)=O | -5.9% | i | 0.01
CC(=O)c1c(C)cc(C)c(CSc2nc(C)cc(=O)[nH]2)c1C | -6.2% | i | 0.53
COc1ccc(N=C2CCCN2CC(N)=O)cc1 | -4.0% | i | -1.9
O=C(Nc1cccc2ccccc12)N1CCN(c2ccc(F)cc2)CC1 | -0.5% | i | -0.73
CN(C)CCNC(CC(=O)Nc1ccc(Cl)c(Cl)c1)C(=O)O (centres undefined) | -5.0% | i | -0.09
CC(=O)OCC1OC(c2ccccc2)C(OC(C)=O)C(OC(C)=O)C1OC(C)=O (centres undefined) | 2.7% | i | -1.2
O=C1c2ccccc2C(Nc2ccc(F)cc2F)N1CCN1CCOCC1 (centres undefined) | -5.1% | i | -0.34
CCOC(=O)c1ccc(COC(=O)CNC(=O)CNC(=O)c2ccc(OC)cc2)o1 | -3.7% | i | 0.52
CCOc1ccc(-n2nc3ccc(NC(=O)c4ccc5c(c4)OCCO5)cc3n2)cc1 | -2.5% | i | /
O=C(CNC(=O)Cn1ccc2ccccc2c1=O)NCCCN1CCCCCC1 | -5.2% | i | 0.19
Cc1c(N=C/C=C/c2ccccc2)cnn1C | 4.0% | i | -0.0093
O=C(O)C1CCC(=O)N1Cc1ccc(F)cc1 (centres undefined) | 1.6% | i | /

Compounds as they come; 0.87% or so of the library scored in one or more.
